# Bioassay records (PubChem)
# NOMO-1 viab: STK33 inhibitor candidate reducing NOMO-1 cell viability; NOMO-1 AML viability, CellTiter-Glo luminescence, 72 h; inhibition, % (concentration not given with the values); 7.5% of 37,000 active; AID 2330;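 active = most replicates above 80%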;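 also: wells of about 30 µL received 25 nL stock; 0% = median of vehicle wells and 100% = reference inhibitor level; the first replicate is given; inactives centre near 10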
# * marks the source's active call; other numbers are inactive results. An excerpt, so the mix of outcomes need not match the whole.
SMILES,NOMO-1 viab
Cc1noc(C)c1NC(=O)Nc1ccc2c(c1)C(=O)N([C@@H](C)CO)C[C@@H](C)[C@H](CN(C)Cc1ccc(C(=O)O)cc1)O2,-23
O=C(CCc1ccc(O)cc1)CC(CCc1ccc(O)cc1)O[C@@H]1OC[C@@H](O)[C@H](O)[C@H]1O (stereo partly specified),113*
C[C@H](CO)N1C[C@H](C)[C@@H](CN(C)Cc2ccc(C(=O)O)cc2)Oc2c(NC(=O)c3ccncc3)cccc2C1=O,-6
C[C@H](CO)N1C[C@H](C)[C@H](CN(C)CC2CCCCC2)Oc2c(NS(=O)(=O)c3cccs3)cccc2C1=O,-17
Cc1noc(C)c1NC(=O)Nc1ccc2c(c1)C(=O)N([C@@H](C)CO)C[C@H](C)[C@@H](CN(C)Cc1ccc(Oc3ccccc3)cc1)O2,22
C[C@H](CO)N1C[C@H](C)[C@H](CN(C)S(=O)(=O)c2cn(C)cn2)Oc2ccc(NC(=O)Nc3cccc4ccccc34)cc2C1=O,13
Cc1cc(C)cc(NC(=O)CSc2nnc(N)s2)c1,11
COc1ccc(NC(=O)CSc2nc3c(cc2C#N)CCCCC3)cc1OC,3
C[C@@H]1CN([C@@H](C)CO)C(=O)c2cccc(NC(=O)NC3CCCCC3)c2O[C@@H]1CN(C)Cc1ccc(C(=O)Nc2ccccc2N)cc1,129*
C[C@@H]1CN([C@@H](C)CO)C(=O)Cc2cc(NC(=O)CCCCCC(=O)Nc3ccccc3N)ccc2O[C@@H]1CN(C)S(=O)(=O)c1ccccc1,16

# Single values from the results shown:
# Entry for C[C@H](CO)N1C[C@H](C)[C@H](CN(C)CC2CCCCC2)Oc2c(NS(=O)(=O)c3cccs3)cccc2C1=O in NOMO-1 viab: -17
# Entry for C[C@@H]1CN([C@@H](C)CO)C(=O)c2cccc(NC(=O)NC3CCCCC3)c2O[C@@H]1CN(C)Cc1ccc(C(=O)Nc2ccccc2N)cc1 in NOMO-1 viab: 129*
# Entry for Cc1noc(C)c1NC(=O)Nc1ccc2c(c1)C(=O)N([C@@H](C)CO)C[C@@H](C)[C@H](CN(C)Cc1ccc(C(=O)O)cc1)O2 in NOMO-1 viab: -23

# An excerpt of these results, with each value named:
Cc1noc(C)c1NC(=O)Nc1ccc2c(c1)C(=O)N([C@@H](C)CO)C[C@@H](C)[C@H](CN(C)Cc1ccc(C(=O)O)cc1)O2
- NOMO-1 viab: -23
O=C(CCc1ccc(O)cc1)CC(CCc1ccc(O)cc1)O[C@@H]1OC[C@@H](O)[C@H](O)[C@H]1O (stereo partly specified)
- NOMO-1 viab: 113*
C[C@H](CO)N1C[C@H](C)[C@@H](CN(C)Cc2ccc(C(=O)O)cc2)Oc2c(NC(=O)c3ccncc3)cccc2C1=O
- NOMO-1 viab: -6

# The list continues:
SMILES,NOMO-1 viab
Cc1c(Cl)cccc1NC(=O)CSc1nnc(-c2ccc([N+](=O)[O-])cc2)n1C,2
O=C(O)CCNS(=O)(=O)c1ccc2c(c1)OCCO2,-11
Cc1ccc(S(=O)(=O)Nc2cccc3c2O[C@H](CN(C)C(=O)Nc2ccccc2)[C@H](C)CN([C@H](C)CO)C3=O)cc1,12
CS(=O)(=O)N(CC(=O)Nc1ccccc1Br)Cc1ccccc1,-26
COc1ccc(NC(=O)Nc2cccc3c2O[C@H](CN(C)Cc2ccccc2)[C@@H](C)CN([C@@H](C)CO)C3=O)cc1,63
C[C@@H]1CN([C@H](C)CO)C(=O)c2cccc(NC(=O)Nc3ccc4c(c3)OCO4)c2O[C@@H]1CN(C)Cc1ccc2c(c1)OCO2,10
Cc1c(C(=O)Nc2sc3c(c2C(=O)NC2CCS(=O)(=O)C2)CCCC3)oc2ccccc12 (stereo unspecified),-2
Cc1ccc(C(Nc2ccccn2)c2ccc3cccnc3c2O)cc1 (stereo unspecified),112*
C[C@H]1CN([C@@H](C)CO)C(=O)Cc2cc(NC(=O)Nc3cccc4ccccc34)ccc2O[C@H]1CN(C)C,-6
C[C@@H]1CN([C@H](C)CO)C(=O)Cc2cc(NS(C)(=O)=O)ccc2O[C@@H]1CN(C)Cc1ccc(C(F)(F)F)cc1,31
C[C@@H]1CN([C@H](C)CO)C(=O)Cc2cc(NC(=O)Cc3ccccc3)ccc2O[C@@H]1CN(C)CC1CC1,18
O=c1cc(Nc2ccc(Cl)cc2)nc(COc2ccccc2)[nH]1,22
